From PubChem
NPYLR7 ag: agonists of mosquito NPYLR7 receptor, primary screen, cell-based, Aedes aegypti, calcium fluorescence, mosquito biting behavior. Aedes aegypti neuropeptide Y-like receptor 7 (NPYLR7). HEK293T NPYLR7/Galpha15, GCaMP6s calcium fluorescence. activation, % at 10 µM. 270,000 tested, 0.15% active. AID 1259423, 2018; in the data active means activation above about 40%;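 further: 0% = vehicle and 100% = reference agonist at the receptor; some compounds past the cut are filed as inactive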
NPYLR7 ag max-min: recorded beside NPYLR7 ag, whose call it bears; activation, %; measured here: Max-Min RFU normalised activation; some inactives read as strong as hits;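 span of the calcium signal over five minutes; 0% = vehicle and 100% = native peptide agonist; compound fluorescence can raise it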
Numbers without * were called inactive. A portion of the library (hit frequency here may not be typical).

What do the screens show for `CCCCCCc1ccc(C(=O)N2CCSC2c2ccccc2OCc2ccccc2)cc1` (stereo not given)?
NPYLR7 ag: -10; NPYLR7 ag max-min: -7

How did CNC(=O)c1ccc(CN2C[C@H]3C[C@H](C2)[C@@H]2CCCC(=O)N2C3)o1 do in these assays?
NPYLR7 ag: 3; NPYLR7 ag max-min: -2

How did O=c1ccc(-c2ccco2)nn1Cc1cccc2ccccc12 do in these assays?
NPYLR7 ag: 9; NPYLR7 ag max-min: 2

What do the screens show for `CC(C)c1[nH]n(-c2ccccc2)c(=O)c1-c1ccc(NC(=O)c2ccccc2F)cc1`?
NPYLR7 ag: 10; NPYLR7 ag max-min: 8

Results for Cc1ccc(-c2csc3ncn(CC(=O)C(C)(C)C)c(=O)c23)s1 ?
NPYLR7 ag: 2; NPYLR7 ag max-min: 7

How did CCOC(=O)C(C)C(C#N)c1nc2ccccc2n1C (stereo not given) do in these assays?
NPYLR7 ag: 2; NPYLR7 ag max-min: 0

What do the screens show for `CC(C)C[C@@H](N)C(=O)N1CCC(Oc2ccccc2F)CC1`?
NPYLR7 ag: 0; NPYLR7 ag max-min: -8

What do the screens show for `O=C(Cn1cc([N+](=O)[O-])nc1[N+](=O)[O-])N1CCN(c2ccc(F)cc2)CC1`?
NPYLR7 ag: 8; NPYLR7 ag max-min: 6

How did O=C(NCc1cccc2ccccc12)NCc1nnnn1-c1ccc(F)cc1 do in these assays?
NPYLR7 ag: -4; NPYLR7 ag max-min: -3

How did Cc1cc(N2CC[C@@H](N3CCOCC3)[C@H](O)C2)c2cc3c(cc2n1)OCO3 do in these assays?
NPYLR7 ag: -4; NPYLR7 ag max-min: -5

Results for CCc1nc2c(N3C[C@H]4C[C@H](O)[C@@H](O)C[C@H]4C3)ncnc2o1 ?
NPYLR7 ag: 4; NPYLR7 ag max-min: 2

Results for CC(C)(C)c1ccc(C(=O)N2CCC2(C)C(=O)Nc2cccc3ncccc23)cc1 (stereo not given) ?
NPYLR7 ag: -4; NPYLR7 ag max-min: -3

Results for CCN1C(=O)c2ccccc2N2C(=O)CCC12C(=O)Nc1cccc(C)c1 (stereo not given) ?
NPYLR7 ag: 3; NPYLR7 ag max-min: -1

How did CNC(=O)NC(=O)CSc1nnc(-c2ccncc2)n1Cc1ccccc1 do in these assays?
NPYLR7 ag: -5; NPYLR7 ag max-min: -9

What do the screens show for `CCc1noc(CN(CC)C(=O)CN2CCCN(C)CC2)n1`?
NPYLR7 ag: 1; NPYLR7 ag max-min: 1

What do the screens show for `Cc1cccc(S(=O)(=O)N2CCN(c3nc4ccccc4c4nnc(-c5ccco5)n34)CC2C)c1` (stereo not given)?
NPYLR7 ag: 4; NPYLR7 ag max-min: 4

Results for O=C1CSC(c2cccc(F)c2)N1CCN1CCNCC1 (stereo not given) ?
NPYLR7 ag: -2; NPYLR7 ag max-min: -7

Results for CCCCC(=O)N(CCOC)CC(=O)N(Cc1ccccc1)Cc1cccn1Cc1cccc(C(F)(F)F)c1 ?
NPYLR7 ag: -3; NPYLR7 ag max-min: -3

How did CC1CCCN(CCN2CCN(c3ccc(F)cc3)CC2)C1 (stereo not given) do in these assays?
NPYLR7 ag: 4; NPYLR7 ag max-min: 4

How did Cc1cc(=O)[nH]c(SC(C)C(=O)N2CC3C[C@@H]4CC2C[C@H](C3)C4)n1 (stereo not given in full) do in these assays?
NPYLR7 ag: 16; NPYLR7 ag max-min: -4

What do the screens show for `CC1(C(=O)Nc2ccc3c(c2)OCO3)CCN1CC1CCCCC1` (stereo not given)?
NPYLR7 ag: 2; NPYLR7 ag max-min: -3

What do the screens show for `CCOc1ccccc1-c1nccn1C1CCN(Cc2ccccn2)CC1`?
NPYLR7 ag: -2; NPYLR7 ag max-min: 2

How did Cc1cccc(COCC2CN(C(=O)Cc3c[nH]c4ccccc34)CCO2)c1 (stereo not given) do in these assays?
NPYLR7 ag: 23; NPYLR7 ag max-min: 24

Results for CCc1ccc(S(=O)(=O)N2CCN(c3ccc4nncn4n3)CC2)s1 ?
NPYLR7 ag: 3; NPYLR7 ag max-min: 9

What do the screens show for `O=C(N1CCC2(CCOCC2)CC1)C1(Nc2ccccc2)CCCC1`?
NPYLR7 ag: 7; NPYLR7 ag max-min: 6

What do the screens show for `CCN(CC)Cc1cnc2c(C(=O)NCc3nccs3)cnn2c1`?
NPYLR7 ag: 2; NPYLR7 ag max-min: -2

What do the screens show for `COc1ccc(CNCc2ccco2)cc1OS(C)(=O)=O`?
NPYLR7 ag: 12; NPYLR7 ag max-min: 10

How did O=C(NCC1CCCN(Cc2cccc(-n3cccn3)c2)C1)c1ccc(F)cc1 (stereo not given) do in these assays?
NPYLR7 ag: -5; NPYLR7 ag max-min: -8

What do the screens show for `CN1CCCC1CCNC(=O)CCc1cc2c(n1-c1ccc3c(c1)OCO3)-c1ccccc1CC2` (stereo not given)?
NPYLR7 ag: -2; NPYLR7 ag max-min: -6

Results for Cc1ccc(C=C2N=C(c3cccc(S(=O)(=O)N(C)C)c3)OC2=O)s1 ?
NPYLR7 ag: 6; NPYLR7 ag max-min: 3

For reference, some entries already given:
How did O=c1ccc(-c2ccco2)nn1Cc1cccc2ccccc12 do in these assays?
NPYLR7 ag: 9; NPYLR7 ag max-min: 2

What do the screens show for `CC(C)c1[nH]n(-c2ccccc2)c(=O)c1-c1ccc(NC(=O)c2ccccc2F)cc1`?
NPYLR7 ag: 10; NPYLR7 ag max-min: 8

The main list resumes with the three entries that preceded the break.
How did O=C(NCC1CCCN(Cc2cccc(-n3cccn3)c2)C1)c1ccc(F)cc1 (stereo not given) do in these assays?
NPYLR7 ag: -5; NPYLR7 ag max-min: -8

What do the screens show for `CN1CCCC1CCNC(=O)CCc1cc2c(n1-c1ccc3c(c1)OCO3)-c1ccccc1CC2` (stereo not given)?
NPYLR7 ag: -2; NPYLR7 ag max-min: -6

Results for Cc1ccc(C=C2N=C(c3cccc(S(=O)(=O)N(C)C)c3)OC2=O)s1 ?
NPYLR7 ag: 6; NPYLR7 ag max-min: 3

Results for CC(C)CCn1c(=O)n(CCn2cccc2)c2cc(C(=O)O)cnc21 ?
NPYLR7 ag: 11; NPYLR7 ag max-min: 2

How did Cc1ccc(Cc2nsc(Oc3cccc(C(=O)NCCCN4CCCCC4C)c3)n2)cc1 (stereo not given) do in these assays?
NPYLR7 ag: 26; NPYLR7 ag max-min: 26

Results for Cc1ccc2c(CC(=O)NCCN3Cc4ccccc4OC(c4ccccc4F)C3)cc(=O)oc2c1 (stereo not given) ?
NPYLR7 ag: 21; NPYLR7 ag max-min: 3

Results for CC(C(=O)NC1CCCC1)N(C)Cc1cc(-c2cccnc2)no1 (stereo not given) ?
NPYLR7 ag: 2; NPYLR7 ag max-min: 3

Results for COc1ccc(F)c(CNC2CC(=O)N(CC(C)(C)C)C2)c1 (stereo not given) ?
NPYLR7 ag: 5; NPYLR7 ag max-min: 3

What do the screens show for `Cc1c(Br)cccc1NC(=O)C1(C)CCN1Cc1cc2ccccc2o1` (stereo not given)?
NPYLR7 ag: 12; NPYLR7 ag max-min: 9

Results for CC(C)(CCl)C(=O)Nc1ccc(N2CCC(Cc3ccccc3)CC2)c(C(=O)NCC2CCCO2)c1 (stereo not given) ?
NPYLR7 ag: 17; NPYLR7 ag max-min: 23

How did CC1CCN(C(=O)CO[C@H]2C[C@@H](C)CC[C@@H]2C(C)C)CC(C)(C)C1 (stereo not given in full) do in these assays?
NPYLR7 ag: -15; NPYLR7 ag max-min: -20

Results for CCN(CC)CCSc1ccnc2c1c(=O)n(C)c(=O)n2C ?
NPYLR7 ag: 8; NPYLR7 ag max-min: 15

What do the screens show for `Fc1c(F)c(F)c(/C=N\Nc2nc(N3CCCC3)nc(N3CCCC3)n2)c(F)c1F`?
NPYLR7 ag: 0; NPYLR7 ag max-min: -7

Results for CCOc1ccc(NC(=O)N2CC(=O)N3CCc4ccccc4C3C2)cc1 (stereo not given) ?
NPYLR7 ag: -2; NPYLR7 ag max-min: 9

How did c1ccc(-n2nnnc2-n2cnc3ccccc32)cc1 do in these assays?
NPYLR7 ag: 0; NPYLR7 ag max-min: -1

Results for CCC(C)n1ncc2c(C(=O)N3CCCCC3C(=O)N3CCCC3)cc(C)nc21 (stereo not given) ?
NPYLR7 ag: -7; NPYLR7 ag max-min: -8

Results for CC(=O)c1ccc(S(=O)(=O)N2CCN(c3ccc(C(F)(F)F)cn3)CC2)cc1 ?
NPYLR7 ag: 5; NPYLR7 ag max-min: 2

Results for Cc1nc(CC(=O)N(C)Cc2cnn(-c3ccccc3C)c2)cs1 ?
NPYLR7 ag: 20; NPYLR7 ag max-min: 7

Results for CCn1nc(C(=O)N2CCN(c3ccccc3)CC2)c2c1CCN(C(=O)C(C)Oc1ccccc1)C2 (stereo not given) ?
NPYLR7 ag: 7; NPYLR7 ag max-min: -4

How did COc1ccc(NC(=O)c2sc(=O)n(Cc3ccc(F)c(Cl)c3)c2C)cc1OC do in these assays?
NPYLR7 ag: -2; NPYLR7 ag max-min: -4

How did Oc1cccc(-c2nccn2C2CCCC2)c1 do in these assays?
NPYLR7 ag: 1; NPYLR7 ag max-min: 1

Results for COC(=O)C(Cc1ccccc1)NC(=O)c1ccc(-n2nc(-c3ccc(Cl)c(Cl)c3)cc2N)cc1 (stereo not given) ?
NPYLR7 ag: -7; NPYLR7 ag max-min: -9

What do the screens show for `CCOc1ccc(-c2nc(Cn3nnc(C(=O)Nc4cc(Cl)ccc4C)c3C)c(C)o2)cc1`?
NPYLR7 ag: -3; NPYLR7 ag max-min: -7

Results for CCCC(C)N(C)C(=O)/C=C/c1cnccn1 (stereo not given) ?
NPYLR7 ag: -13; NPYLR7 ag max-min: -13

What do the screens show for `CCOC(=O)c1nc2cc(Cl)c(Cl)cc2nc1N1CCN(C(=O)c2ccco2)CC1`?
NPYLR7 ag: -17; NPYLR7 ag max-min: -18

What do the screens show for `CC(C)(C)c1cc(NC(=O)c2ccc(OC(F)(F)F)cc2)n(-c2ccc(Br)cc2)n1`?
NPYLR7 ag: 11; NPYLR7 ag max-min: 1

Results for Cc1nnc(C(=O)N2CCC(Sc3ccccc3C)CC2)o1 ?
NPYLR7 ag: 11; NPYLR7 ag max-min: 2

How did CCC(CC)S(=O)(=O)NC(=O)c1c(C)nn(CC)c1Cl do in these assays?
NPYLR7 ag: 2; NPYLR7 ag max-min: 0

How did CC(C)Cn1nc(C(=O)N2CCCC2)c2c1CCC(NCC1(c3ccccc3)CCOCC1)C2 (stereo not given) do in these assays?
NPYLR7 ag: 19; NPYLR7 ag max-min: 1

What do the screens show for `COC(=O)C1=C(C)NC(C)=C(C(=O)OC)C1C(=O)OCC(=O)N1CCN(C(C)=O)CC1`?
NPYLR7 ag: 5; NPYLR7 ag max-min: 11

How did CC(NC(=O)C1CCN(Cc2ccc(Cl)c(Cl)c2)CC1)c1ccc(F)cc1 (stereo not given) do in these assays?
NPYLR7 ag: 0; NPYLR7 ag max-min: -3

What do the screens show for `CCOC(=O)C1CCN(C(c2ccncc2)c2c(O)cc(C)n(CCOC)c2=O)CC1` (stereo not given)?
NPYLR7 ag: 10; NPYLR7 ag max-min: 5

How did Cc1nnc(CN(Cc2ccc(OC(F)(F)F)cc2)C(C)(C)C)o1 do in these assays?
NPYLR7 ag: 1; NPYLR7 ag max-min: 0

Results for CC(=O)OC(C)(C)C(=O)N1CCc2ccccc2C1c1ccc(F)cc1 (stereo not given) ?
NPYLR7 ag: 6; NPYLR7 ag max-min: 1

What do the screens show for `COc1ccc(OCC2CN(C(=O)c3cccc(C#N)c3)CCO2)cc1` (stereo not given)?
NPYLR7 ag: 29; NPYLR7 ag max-min: 23

What do the screens show for `O=C(OCC(=O)N1CCOCC1)c1cc2cc(F)ccc2s1`?
NPYLR7 ag: 0; NPYLR7 ag max-min: -1

What do the screens show for `CCCCCCC(=O)Nc1nnc(SCc2ccc(Cl)c(Cl)c2)s1`?
NPYLR7 ag: -2; NPYLR7 ag max-min: 4

Results for CCC(C)n1c(C)c(C)n2c3c(=O)n(CCN4CCCCC4)c(=O)n(C)c3nc12 (stereo not given) ?
NPYLR7 ag: -8; NPYLR7 ag max-min: -9

Results for CCN1C(=S)NC(c2cccc(NS(C)(=O)=O)c2)C(C(=O)OCC(C)C)=C1C (stereo not given) ?
NPYLR7 ag: -8; NPYLR7 ag max-min: 3

How did COc1cc2c(cc1OC)C(c1cccc(C(F)(F)F)c1)N(C(=O)Nc1ccc(C)cc1)CC2 (stereo not given) do in these assays?
NPYLR7 ag: 10; NPYLR7 ag max-min: 6

Results for O=C(Cn1nc2ccc(SC3CCCCC3)nn2c1=O)Nc1ccc(F)c(F)c1 ?
NPYLR7 ag: -3; NPYLR7 ag max-min: -6

What do the screens show for `CC(C)(C)c1ccc(NC(=O)CC2CCOC2)cc1` (stereo not given)?
NPYLR7 ag: 11; NPYLR7 ag max-min: 5

What do the screens show for `CCCCCC(O)c1nnc(Nc2ccc3c(c2)OCO3)s1` (stereo not given)?
NPYLR7 ag: 18; NPYLR7 ag max-min: 14

Quoted at random: 5 entries already listed, in no set order.
What do the screens show for `CCCCCC(O)c1nnc(Nc2ccc3c(c2)OCO3)s1` (stereo not given)?
NPYLR7 ag: 18; NPYLR7 ag max-min: 14

Results for CCC(C)n1c(C)c(C)n2c3c(=O)n(CCN4CCCCC4)c(=O)n(C)c3nc12 (stereo not given) ?
NPYLR7 ag: -8; NPYLR7 ag max-min: -9

Results for CCN1C(=S)NC(c2cccc(NS(C)(=O)=O)c2)C(C(=O)OCC(C)C)=C1C (stereo not given) ?
NPYLR7 ag: -8; NPYLR7 ag max-min: 3

Results for CC(=O)OC(C)(C)C(=O)N1CCc2ccccc2C1c1ccc(F)cc1 (stereo not given) ?
NPYLR7 ag: 6; NPYLR7 ag max-min: 1

What do the screens show for `CC(C)(C)c1ccc(NC(=O)CC2CCOC2)cc1` (stereo not given)?
NPYLR7 ag: 11; NPYLR7 ag max-min: 5
